Marburg entry inh: Marburg virus entry inhibition. Marburg virus pseudotyped entry inhibition, cell reporter; control for the full effect not named in the record; about a third of the inactives were read at about 46 µM. Potency, µM (series often up to 37.8 µM), inactives show at the top dose activity change, negative = inhibition, hits mostly inhibitors. 300,000 tested, 1.8% active. AID 540276; active = well fitted inhibition curve with a large enough effect; inconclusive = small, poorly fitted or top-dose-only effect, or effect the other way; inactive = flat fitted curve, though single readings scatter; tested in HEK293 cells; about a fifth of its hits are not listed in these tables; further: on the % scale 0 is the no-effect control and ±100 the full control effect; luciferase read-out
NS1 inh: blocks influenza NS1 protein function; AID 2326; S. cerevisiae slowed by influenza A NS1, growth recovery by OD600; Potency, µM (series often up to 46.1 µM), without a hit: at the top dose activity, positive = more growth; 270,000 tested, 0.4% active; active means well fitted rising curve with a large enough effect; inconclusive means small, poorly fitted or top-dose-only effect; inactive means no such curve, though single readings can be large or run the other way; further: nearly all actives have a fitted effect of over 50% in size
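Compounds were scored for reversing the slow growth caused by influenza A NS1 in S. cerevisiae, measured by optical density at 600 nm. Assay medium contained 2% galactose at pH 6.0; NS1-free yeast of the same strain were the positive control.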
Cruzain Triton: inhibitors of Trypanosoma cruzi cruzain with detergent; P25779; purified cruzain, Z-FR-AMC fluorescence, 0.01% Triton; Potency, µM, inactives show max response, negative = inhibition, usual class: inhibitors; 200,000 tested, 0.43% active;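 further: plate controls were neutral wells for no effect and buffer without enzyme for full effect; nearly all actives have a fitted effect of over 40% in size; top concentration of the series not given in the record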
Target sequence (P25779 123-467 limits assumed): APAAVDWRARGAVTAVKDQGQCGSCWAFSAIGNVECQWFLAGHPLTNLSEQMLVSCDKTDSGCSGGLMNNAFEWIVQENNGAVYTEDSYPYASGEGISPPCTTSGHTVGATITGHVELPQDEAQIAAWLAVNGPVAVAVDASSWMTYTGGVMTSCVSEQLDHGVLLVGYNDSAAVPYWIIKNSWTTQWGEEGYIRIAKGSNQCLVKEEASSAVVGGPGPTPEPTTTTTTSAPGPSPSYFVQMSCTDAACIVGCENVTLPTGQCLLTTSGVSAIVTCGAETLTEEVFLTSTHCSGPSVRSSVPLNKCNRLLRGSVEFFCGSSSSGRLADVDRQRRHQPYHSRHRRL
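Sodium acetate buffer (100 mM, pH 5.5) containing 5 mM DTT and 0.01% Triton X-100 hosted 1.5 nM cruzain and test compound for 15 min at room temperature. Cleavage of 2 uM Z-FR-AMC was then tracked by fluorescence.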
Cruzain noTriton: blocks cruzain activity in detergent-free assay. Potency, µM, for inactives: max response, negative = inhibition, actives largely listed as inhibitors. 200,000 tested, 2.3% active. purified cruzain, Z-FR-AMC fluorescence, no detergent. AID 1476;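 further: plate controls were enzyme without inhibitor for no effect and buffer without enzyme for full effect; nearly all actives have a fitted effect of over 40% in size; top concentration of the series not given in the record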
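Purified cruzain at 1.5 nM, pre-incubated 15 min with compound at room temperature in 100 mM sodium acetate pH 5.5, 5 mM DTT, 0.00005% Triton X-100. Reaction started with 2 uM Z-FR-AMC; AMC fluorescence increase over 60 s gives rate.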
SARS PLpro yeast: blocks SARS-CoV papain-like protease in a yeast assay; S. cerevisiae expressing SARS-CoV PLpro, growth rescue; control for the full effect not named in the record; Potency, µM (highest dose often 32.9 µM), for the others: at the highest dose activity, positive = growth rescue; 330,000 tested, 0.19% active; AID 485353; active means well fitted rising curve with a large enough effect; inconclusive means small, poorly fitted or top-dose-only effect; inactive means no such curve, though single readings can be large or run the other way; further: 0% is about no effect; nearly all actives have a fitted effect of over 55% in size; growth read by luminescence after 48 h
RE007 growth inh: less growth of the S. pombe RE007 Vpr strain. AID 651644. Potency, µM (titrated, usually from 92.2 µM), for inactives: at the highest dose activity change, negative = less growth. 360,000 tested, 0.21% active. S. pombe RE007 Vpr strain, BacTiter-Glo ATP luminescence, 24 h; control for the full effect not named in the record; active = well fitted falling curve with a large enough effect; inconclusive = small, poorly fitted or top-dose-only effect; inactive = no such curve, though single readings can be large or run the other way;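 further: on the % scale 0 is the no-effect control and ±100 the full control effect; nearly all actives have a fitted effect of over 50% in size; the assay follows cell death caused by Vpr and the record does not say whether a fall means rescue or toxicity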
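Fission yeast strain RE007, carrying one chromosomally integrated HIV-1 vpr copy, was seeded at OD 0.01 in PMG+AL medium with 23 nL pinned compound. After 24 h at 30 °C and 99% humidity, viability was read by BacTiter-Glo luminescence.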
Lassa entry inh: Lassa virus entry inhibition. Lassa virus pseudotype entry inhibition, cell reporter; control for the full effect not named in the record. Potency, µM (titrated, usually from 37.9 µM), inactives show top-dose activity change, negative = inhibition, usual class: inhibitors. 300,000 tested, 1.2% active. AID 540256; active means well fitted inhibition curve with a large enough effect; inconclusive means small, poorly fitted or top-dose-only effect, or effect the other way; inactive means flat fitted curve, though single readings scatter; tested in HEK293 cells; further: on the % scale 0 is the no-effect control and ±100 the full control effect; nearly all actives have a fitted effect of over 50% in size; luciferase read-out
2A StopGo: lowers the luciferase signal of an FMDV 2A StopGo reporter | human cells with a luciferase reporter of 2A StopGo recoding; control for the full effect not named in the record | Potency, µM (series often up to 57.9 µM), inactives show at the highest dose signal change, negative = less light | 410,000 tested, 1.2% active; active = well fitted falling curve with a large enough effect; inconclusive = small, poorly fitted or top-dose-only effect; inactive = no such curve, though single readings can be large or run the other way; tested in HEK293T cells; further: on the % scale 0 is the no-effect control and ±100 the full control effect; nearly all actives have a fitted effect of over 45% in size; luciferase light after 4 h
Starred values were filed as active, the others as inactive; u = inconclusive; x = no result given; & = joins results of further samples; [ ] = another dose, or the depositor's remark. Unless noted, the call rests on the fitted dose curve; in most records, active means well fitted curve in the direction sought with a large enough effect; inconclusive means small, poorly fitted or top-dose-only effect, or another doubt; inactive means no such curve, though single readings can be large; an effect the other way counts as inactive or inconclusive. Potency means the concentration at half of the fitted maximal effect.

structure	Cruzain Triton	Marburg entry inh	NS1 inh	RE007 growth inh	Cruzain noTriton	Lassa entry inh	2A StopGo	SARS PLpro yeast
O=C1c2ccccc2C(O)(Cc2ccccc2)N1Cc1ccco1 (stereo not drawn)	-7.8%	-2%	4%	11%	-5%	18%	x	16%
CCOC(=O)C(C)Sc1nc(-c2ccccc2)nc2ccccc12 (stereo not drawn)	x	x	x	-1%	x	18%	-24%	-4%
COc1ccc(C(=O)Nc2cc(=O)[nH]c3ncnn23)cc1	x	x	-1%	-8%	x	x	17%	0%
CS(=O)(=O)N(Cc1ccc(C(=O)NC2CCCC2)cc1)c1ccccc1	x	u	1%	1%	x	0%	0%	0%
Cc1ccc(C)c(N(C(=O)CS(=O)CC(=O)Nc2ccc3c(c2)OCO3)C(C)C(=O)NC2CCCC2)c1 (stereo not drawn)	0.7%	u	3%	-9%	u	-4%	41%[activator]	-9%
COc1ccc(OC)c(-c2cc(C(=O)Nc3c(C)nn(Cc4ccccc4C)c3C)no2)c1	-3.5%	u	-49%	-5%	17%	u	u	-17%
COc1ccccc1NC(=O)c1c(C)cc(C)nc1SCC(=O)Nc1ccc(C)c(C)c1	-4.7%	7.9µM*	x	x	8%	-22%[46.1 µM]	-4%	x
Cc1ccc(NC(=O)c2sc3nc(-c4cc5ccccc5oc4=O)[nH]c(=O)c3c2C)c(C)c1	-1.0%	x	x	x	13%	-2%[46.1 µM]	-14%	x
COc1ccc(N2C(=O)CNC2=S)cc1	-1.6%	19%	3%	-2%	-4%	2%	0%	-7%
Cc1cc(NS(=O)(=O)c2ccc(NC(=S)NC(=O)c3ccc(F)cc3)cc2)no1	-7.2%	11%	28%	3%	-13%	1%	30%[activator]	14%

The list goes on, overlapping the part above by two compounds.
structure	Cruzain Triton	Marburg entry inh	NS1 inh	RE007 growth inh	Cruzain noTriton	Lassa entry inh	2A StopGo	SARS PLpro yeast
COc1ccc(N2C(=O)CNC2=S)cc1	-1.6%	19%	3%	-2%	-4%	2%	0%	-7%
Cc1cc(NS(=O)(=O)c2ccc(NC(=S)NC(=O)c3ccc(F)cc3)cc2)no1	-7.2%	11%	28%	3%	-13%	1%	30%[activator]	14%
CCOC(=O)c1ccc(N2Cc3cc(C)c(C)cc3C2)cc1O	0.9%	x	3%	x	-23%	x	x	2%
O=P(O)(O)CCP(=O)(c1ccccc1)c1ccccc1	10%	7%	4%	1%	-3%	-16%	x	0%
COC(=O)c1ccc(Nc2cc(C)nc3nc(C)nn23)cc1	9.6%	u	-20%	-8%	5%	11%	-8%	-8%
O=[N+]([O-])c1ccc(NC2CCCCC2)nc1	x	-11%[46.1 µM]	x	-1%	x	-10%[46.1 µM]	-14%	x
CCOC(=O)C1CN(C)CCC1=O (stereo not drawn)	4.4%	u	0%	-13%	-2%	0%	-13%	-4%
CCN1CCN(c2nnc(-n3cccc3C(=O)Nc3cccc(OC)c3)s2)CC1	0.6%	x	x	x	-17%	29%[46.1 µM]	7%	x
CCN(CC)c1ccc(NC(=O)c2cc(C)nc3c2c(C)nn3-c2cccc(F)c2)c(C)c1	-0.8%	x	x	x	3%	28%[46.1 µM]	1%	x
COc1ccc(-c2nc3cc(C(C)C)ccc3o2)cc1NC(=O)c1ccc(C)c(Cl)c1	-0.2%	u	x	x	-7%	26%[46.1 µM]	-12%	x
Cc1cc(OC(C)C(=O)N[C@H](C(=O)O)c2ccccc2)c2c3c(c(=O)oc2c1)CCC3 (stereo partly drawn)	x	x	24%	0%	x	x	-22%	4%
O=C(/C=C\c1cn(-c2ccccc2)nc1-c1ccc2c(c1)OCCO2)N1CCOCC1	x	x	0%	8%	x	x	26%	0%
CC(C)N(C(=O)CSc1nnc(-c2cc3ccccc3cc2O)n1Cc1ccco1)C(C)C	-2.9%	u	13%	10%	-7%	u	u	-5%
O=C1c2ccccc2N2C(=O)c3ccccc3C2N1Cc1ccco1 (stereo not drawn)	-4.3%	-24%	-9%	3%	-6%	-18%	-27%	10%
CCNc1nc(SCC(=O)OC)nc(N(C)C)n1	x	18%[46.1 µM]	x	14%	x	15%	-1%	3%
NC(=O)c1ccccc1NC(=O)Cn1nc(Cc2cccnc2)c2ccccc2c1=O	-9.5%	u	x	x	-2%	-14%[46.1 µM]	-14%	x
Cc1cccc(NC(=O)CN2C(=O)c3ccccc3C2=O)c1C	x	x	3%	-12%	x	x	-7%	4%
Cc1ccc(C(=O)NCC(c2ccc(F)cc2)N2CCOCC2)cc1S(=O)(=O)N1CCOCC1 (stereo not drawn)	x	-25%	x	u	x	8%	5%	x
Cc1cccc(CNC(=O)c2ccc3oc(=O)n(Cc4ccccc4)c3c2)c1	-5.2%	x	x	x	-5%	u	u	x
COc1ccc(C(=O)COC(=O)CN2C(=O)NC(C)(C)C2=O)cc1OC	-2.5%	-7%	-6%	18%[3.69 µM]	-5%	-30%	-2%	-2%
Cc1ccc(CNC(=O)c2ccc3c(c2)NC(=O)C(N2CCOCC2)S3)cc1 (stereo not drawn)	x	-17%[46.1 µM]	x	12%	x	u	-27%	14%
CCOCCCNC(=S)N1CCCN(c2nc3c(C)c(C)ccc3cc2C#N)CC1	x	u	4%	0%	x	-28%[46.1 µM]	-7%	-1%
COc1ccc(N/C=C/C(=O)C(C)(C)C)cc1	x	-26%[46.1 µM]	4%	4%	x	-5%[46.1 µM]	21%	-1%
COC(=O)CSc1nc(NC(C)C)nc(N2CCOCC2)n1	3.4%	-11%[46.1 µM]	-5%	2%	4%	13%	-19%	1%
CC(NS(=O)(=O)c1cc(C(F)(F)F)ccc1Cl)C(=O)N(C)C1CCN(C)CC1 (stereo not drawn)	x	19%	x	0%	x	13%	-6%	-5%
COC(=O)Nc1c(C(=O)OC)cc(OC)c(OC)c1OC	0.3%	5%	0%	14%	4%	-3%	-1%	2%
COc1ccc(CCC(=O)OCC(=O)c2cccc(OC)c2)cc1	x	13%[46.1 µM]	x	-1%	x	0%	-3%	-7%
COc1ccc(S(=O)(=O)NCc2ccc(F)cc2)cc1OC	x	6%[46.1 µM]	6%	6%	x	12%[46.1 µM]	40%[activator]	1%
CCCCn1c(N)c(N(CCC(C)C)C(=O)c2cc(CC)c(C)s2)c(=O)[nH]c1=O	x	u	x	5%	x	-19%	-24%	-7%
CC(NC(=O)c1cc2c(=O)n3ccccc3nc2n(CC2CCCO2)c1=N)c1ccccc1 (stereo not drawn)	x	-26%[46.1 µM]	-2%	-1%	x	x	10%	1%
Cc1ccc(S(=O)(=O)CCC(=O)OCC(=O)Nc2cc(C)on2)cc1	0.7%	11%	u	8%	10%	0%	1%	1%
COc1cc(C(=O)Nc2cccc(OCc3cc(=O)n4c(C)csc4n3)c2)cc(OC)c1OC	-0.1%	14%[46.1 µM]	x	x	-16%	-6%[46.1 µM]	-26%	x
CCn1nccc1C(=O)Nc1cc(Cl)ccc1Cl	-3.1%	-13%	-12%	-26%	-9%	-3%	-13%	-10%
O=C(Nc1nc(-c2ccccc2)cs1)c1ccc(S(=O)(=O)N2CCc3ccccc32)cc1	-1.1%	u	5µM*	-6%	6.3µM*	u	u	15%
O=C(NCc1noc2ccccc12)N1CCN(c2ccccc2)CC1	-0.1%	x	x	x	14%	5%[46.1 µM]	17%	x
Cc1[nH]c2ccccc2c1N=Nc1ccc(F)cc1	x	u	x	u	x	27%	0%	-28%
CC(=O)c1ccc(NC(=O)c2ccc(NC(=O)CCS(=O)(=O)c3cccs3)cc2)cc1	-6.1%	u	-6%	13%	-5%	u	-9%&-36%	23%
CCN(Cc1ccccc1)C(=O)CCc1c(C)nc2c(c(C)nn2-c2ccc(C)c(C)c2)c1C	0.8%	14%[46.1 µM]	x	x	-3%	15%[46.1 µM]	-7%	x
CNc1nc(OC)nc(N2CCOCC2)n1	0.6%	5%[46.1 µM]	10%	3%	-5%	-7%	3%	5%
O=C(CS(=O)(=O)c1ccc(C(F)(F)F)cn1)NNC(=O)c1ccccc1	x	28%[46.1 µM]	-1%	-15%	x	-10%[46.1 µM]	-1%	1%
Cc1cc(-c2ccccc2)nc(N(C)NC(=O)c2cccc(C(F)(F)F)c2)c1S(C)(=O)=O	2.2%	u	1%	-12%	6%	-8%	-18%	-1%
Cn1c(SCC(=O)N2CCCCC2)nnc1-c1ccc(S(=O)(=O)N2CCOCC2)cc1	1.0%	9%&9%	-3%	-1%	-8%	14%	2%	12%
O=C(CSc1nc(-c2ccccc2)cc(=O)[nH]1)N1CCOCC1	5.4%	-7%	3%	21%	-12%	10%	-14%	x
COc1ccc(C(=O)Nc2ccc3nc(N4CCCCC4)cc(C)c3c2)cc1OC	-3.7%	-12%[46.1 µM]	3%	-3%	-10%	u	-17%&-30%	u
Cc1ccc(Cl)cc1Nc1sc(C(=O)c2ccccc2)c(N)c1S(=O)(=O)c1ccccc1	-2.4%	13%[46.1 µM]	x	x	u	u	-19%	x
N#Cc1ccsc1NC(=O)CN1CCN(c2ccccc2)CC1	-2.5%	8%[46.1 µM]	-4%	14%	5%	1%[46.1 µM]	0%	-2%
Cc1ccccc1CCNC(=O)CCn1nc(C)c2c(C)n(-c3ccccc3)nc2c1=O	x	x	-12%	1%	x	x	-19%	2%
O=C(c1cc(C2CC2)on1)N1CCN(C(c2ccccc2)c2ccccc2)CC1	-3.4%	-1%	-34%	20%	-1%	x	-26%	-6%
